High-throughput results deposited in PubChem BioAssay by several laboratories.
Hsc70 ATP site: Hsc70 inhibitors, probe displacement, primary screen, biochemical, fluorescence polarization (AID 568); Heat shock cognate 71 kDa protein (Homo sapiens); Hsc70 fluorescence polarization, probe displacement; higher % means a stronger effect; strong numbers were not always called active; one-dose displacement, % at 20 µM; IC50 in µM for titrated hits; 83,000 tested, under 10 active;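 active = displacement above 50% without optical interference and an IC50 on retest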;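 note: ATPase domain with a fluorescein-tagged ATP probe; 0% = vehicle and 100% = excess ADP; read after one hour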
WNV protease inh: inhibitors of WNV NS2B-NS3 protease, primary screen, biochemical, fluorogenic substrate; Genome polyprotein (West Nile virus), P06935; fluorogenic substrate Ex360/Em465; active compounds read low; z-score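 (tested at a level between 10 and 100 µM)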; 0.18% of 65,000 active;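 active = z-score at -3 or under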;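 note: score is relative to mean and spread of the compound wells of a plate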
Target sequence (P06935 1371-1501 limits assumed): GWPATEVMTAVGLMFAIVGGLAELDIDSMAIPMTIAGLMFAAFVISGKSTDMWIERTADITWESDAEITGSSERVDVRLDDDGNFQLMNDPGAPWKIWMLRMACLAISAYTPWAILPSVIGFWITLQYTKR
Target sequence (P06935 1502-1679 limits assumed): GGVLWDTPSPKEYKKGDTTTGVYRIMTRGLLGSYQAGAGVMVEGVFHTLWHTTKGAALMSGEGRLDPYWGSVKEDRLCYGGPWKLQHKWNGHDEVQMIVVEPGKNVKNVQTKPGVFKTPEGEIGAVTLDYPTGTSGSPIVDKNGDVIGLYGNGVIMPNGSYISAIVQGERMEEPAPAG
MT1-MMP promoter: inhibitors of MT1-MMP promoter transcription, cell-based, luciferase reporter, luminescence (AID 618). MT1-MMP promoter luciferase reporter cells, luminescence. 0.62% of 87,000 active. calls from a first round at 10 µM; hits with a dose series show EC50 in µM;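 active = over half of the reporter light lost at 10 µM or EC50 under 50 µM; inactive = the rest and hits that failed the dose series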;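 note: actives suppress MT1-MMP promoter-driven transcription so potencies describe inhibitors; HT1080 fibrosarcoma cells; overnight exposure; toxic or luciferase-blocking compounds were not removed from the actives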
The depositor's hits bear a star; i = inactive; / = no result given. Not a hit list; any-hit rate near 0.8%.

SMILES,Hsc70 ATP site,WNV protease inh,MT1-MMP promoter
CC(c1ccccc1)N1C(=O)NC(NC(=O)c2cccnc2)(C(F)(F)F)C1=O (stereo not given),-3.1%,/,i
O=C(CSCCO)Nc1cc(C(F)(F)F)ccc1Cl,1.4%,0.11,i
CN1CCN(c2nc3c(c(=O)[nH]c(=O)n3C)n2CC(N)=O)CC1,-5.1%,1.96,i
COc1cc(NC(=O)c2cc(-c3ccco3)on2)c(OC)cc1Cl,-14.4%,-0.87,i
O=C(c1ccc(-n2cccc2)cc1)N1CCOCC1,0.6%,/,i
COc1ccccc1N1CCN(C(=O)CCc2ccc(S(=O)(=O)NCC(C)C)cc2)CC1,7.2%,-1.08,i
Cc1nc2ccc(S(=O)(=O)NC(C(=O)Nc3nccs3)C(C)C)cc2s1 (stereo not given),0.1%,0.11,i
Cc1ccccc1NC(=O)c1c(O)c2cccc3c2n(c1=O)CC3,-8.7%,-0.65,i
CC(C)CSc1nc2c(=O)[nH][nH]c(=O)c2n1Cc1ccccc1,-3.5%,/,i
O=C(COc1ccccc1)N1CCN=C1SCc1cccnc1,2.9%,0.39,i
COc1ccc(Cn2nc(C)cc2C)cc1OC,-0.2%,-0.57,i
O=C(c1ccc(Cl)cc1Cl)N1CCC(c2nc3c(nnn3Cc3ccco3)c(=O)[nH]2)CC1,-3.3%,-0.57,i
O=C(CCn1nc(-c2ccccc2)ccc1=O)N1CCOCC1,-9.0%,0.02,i
CC1CCN(C(=O)c2cc(F)c(F)cc2Cl)CC1,0.3%,/,i
O=C(Nc1ccccc1)c1ccc(N2CCN(c3ccccc3)CC2)c(S(=O)(=O)N2CCOCC2)c1,-2.8%,/,i
CCOC(=O)N1CCN(C(=O)CCCn2c(=O)[nH]c3ccccc3c2=O)CC1,-4.9%,1.56,i
CCn1c(CC(=O)Nc2ccccc2)nnc1SCC(=O)Nc1ccccc1C(=O)OC,-4.8%,0.53,i
Cc1cc(N2CCCCCC2)nc(-c2ccccc2O)n1,-3.7%,0.04,i
Cc1ccnc(SCCn2c(N(C)Cc3ccccc3)nc3c2c(=O)n(C)c(=O)n3C)n1,52.2%,1.59,i
CC1(C)CNC(=O)c2sc(N3CCOCC3)nc2C1,-5.1%,-0.07,i
COC(=O)C1=C(C(=O)OC)SC(=C2C(=S)C(C)(C)N(C(=O)C(C)C)c3ccccc32)S1,2.5%,/,i
Cc1cccc(N2CCN(C(=O)c3ccc(N4CCCC4=O)cc3)CC2C)c1 (stereo not given),-10.1%,0.82,i
O=C(CSc1nc(O)c(Cc2ccccc2)c(=O)[nH]1)Nc1ccccc1,5.7%,-0.63,i
CCOc1ccc(CN2CCNC(=O)C2CC(=O)OC)cc1 (stereo not given),-1.8%,-0.94,i
CC(c1ccccc1)n1cc(C(=O)NCC2COc3ccccc3O2)nn1 (stereo not given),3.8%,-0.39,i
COc1ccc(-c2nc(-c3ccncc3)no2)cc1OC,-7.7%,1.47,i
COc1ccccc1CNC(=O)Cn1cnc2ccccc2c1=O,-8.0%,1.55,i
N#Cc1c(SCC(=O)O)nc(-c2ccccc2)c2c1CCCC2,-0.2%,/,i
COc1cccc(C2/C(=C(/O)c3cnn(-c4ccccc4)c3C)C(=O)C(=O)N2CCN(C)C)c1OC (stereo not given),-3.9%,-0.09,i
Cc1csc(NC(=O)c2cnccn2)n1,1.9%,-0.39,i
NC(=O)C1CCN(CCC(=O)Nc2ccc3c(c2)CCC3)CC1,-0.2%,/,i
Cc1nnc(NC(=O)c2cccc(NC(=O)C(C)C)c2)s1,-2.7%,/,i
CCOC(=O)C1CCN(c2c(NCCCN(C)C3CCCCC3)c(=O)c2=O)CC1,1.0%,1.17,i
CCOc1ccc(C(O)c2nccn2C)cc1 (stereo not given),1.3%,/,i
Cc1noc(NS(=O)(=O)c2ccc(NC(=O)Nc3ccc(Cl)c(Cl)c3)cc2)c1C,1.9%,2.48,i
COc1cccc(-c2noc(N)c2C#N)c1,4.5%,-0.58,i
CCn1c(=O)cc(SCC(=O)Nc2ccc3c(c2)OCO3)c2ccccc21,-2.0%,0.05,i
CSc1nnc(Cn2c(=O)sc3ccccc32)n1CCc1ccccc1,-6.7%,1.7,i
Cc1cccc(CCNC(=O)CCc2nc(-c3ccccc3F)no2)c1,-6.3%,0.33,i
O=C(CSc1nnc(-c2cccnc2)o1)Nc1ccccn1,-1.7%,1.12,i
COc1ccccc1Nc1ncnc2c1oc1ccccc12,-6.9%,-2.69,i
O=C(Nc1ccc(N2CCN(C(=O)c3ccco3)CC2)cc1)c1cccc(F)c1,-5.7%,0.18,i
CCOC(=O)C(C)n1nc(C)c2sc3ccccc3c2c1=O (stereo not given),-7.2%,0.00119,i
CC1CC(C)CN(C(=O)CSc2nnc(-c3ccc(Cl)cc3)o2)C1 (stereo not given),5.8%,-0.37,i
CCN(C(=O)c1ccnc(C(C)(C)C)c1)c1ccccc1,-2.0%,-0.09,i
CCCc1ccc(OCc2ccc(C(=O)OC)o2)c(OC)c1,-4.6%,-0.49,i
CCn1cc([N+](=O)[O-])c(C(=O)N2N=C(c3cccc4ccccc34)CC2c2ccccc2O)n1 (stereo not given),1.6%,/,i
CCn1c(CN2CCN(c3ccc(Cl)cc3)CC2)nc2ccccc21,2.7%,/,i
COc1ccc2[nH]c(=O)c(CN(C(=O)c3ccco3)C3CCCCC3)cc2c1,2.0%,/,i
Cc1nc(N2CCN(Cc3nc4ccccc4[nH]3)CC2)c2oc3ccccc3c2n1,0.0%,-0.37,i
N/C(=N/O)c1nc(N2CCCCC2)nc(N2CCCCC2)n1,-5.7%,0.82,i
O=C(N1CCOCC1)N1CCN(Cc2ccccc2)CC1,-3.2%,-0.54,i
Cc1ccc(S(=O)(=O)N2CCSC2c2ccco2)cc1 (stereo not given),-37.9%,0.06,i
c1ccc(-n2ncc3c(NCCN4CCOCC4)ncnc32)cc1,-3.5%,0.18,i
COc1ccccc1C1C=C(c2ccc(C)cc2)Nc2nnnn21 (stereo not given),-5.6%,0.96,i
Cc1nn(C)c(C)c1NC(=O)CCCSc1nc(-c2ccco2)cc(C(F)(F)F)n1,5.2%,/,i
O/N=C1\CC/C(=N\O)c2nn(-c3ccc(Cl)cc3Cl)nc21,-3.9%,-0.69,i
CCN1CCN(c2ncnc3sc(C(=O)Nc4ccccc4F)c(C)c23)CC1,-5.9%,1.5,i
O=C(c1ccccc1)N(Cc1ccc(F)cc1)Cc1nc2ccccc2c(=O)[nH]1,2.3%,/,i
COC(=O)c1ccccc1NC(=O)COC(C)=O,0.8%,-1.1,i

Next section.
SMILES,Hsc70 ATP site,WNV protease inh,MT1-MMP promoter
CCN(CC)C(=O)CSc1ncnc2c1cnn2Cc1ccccc1,-9.9%,1.83,i
O=C(NC1CCCC1)C(c1ccccc1)N(C(=O)c1ccno1)c1ccccc1 (stereo not given),0.3%,/,i
COC(=O)c1ccccc1NC(=O)COC(=O)c1ccco1,4.2%,-0.69,i
CCC12CN(S(=O)(=O)c3ccc(C)cc3)CC(CC)(CN(S(=O)(=O)c3ccc(C)cc3)C1)C2=O,3.6%,/,i
O=C1C(NS(=O)(=O)c2cccs2)=C(N2CCN(c3cccc(Cl)c3)CC2)C(=O)c2ccccc21,2.5%,/,i
CC(=O)Nc1ccc(S(=O)(=O)N2CCN(C3CCCCCCC3)CC2)cc1,-1.2%,-0.57,i
COc1ccc(C2=Nc3cc(C)ccc3OC2)cc1,-2.7%,/,i
O=C(c1ccccn1)N(Cc1cc2ccccc2[nH]c1=O)C1CCCCC1,-4.5%,-0.91,i
CN1CCN(CC(O)COc2ccc(Cl)cc2)CC1 (stereo not given),-2.6%,/,i
O=C(Nc1ccccc1)C1CC2CCCC(C1)C2=O (stereo not given),1.8%,-0.29,i
CC1Cc2nc(SCC(=O)NCCc3ccccc3)n(C)c(=O)c2S1 (stereo not given),-0.3%,-1.1,i
O=C(CCn1cccc1)Nc1cccc(F)c1,-0.7%,-1.05,i
CN(C)Cc1nc2c(c(=O)[nH]1)C(C)(C)Cc1ccccc1-2,2.4%,/,i
O=C(Nc1cc(C(F)(F)F)ccc1N1CCOCC1)c1c(F)c(F)c(F)c(F)c1F,3.3%,-0.55,i
CC1(C)CC(=O)CC(=Nc2ccc3[nH]c(=O)[nH]c3c2)C1,2.3%,-1.43,i
O=C1c2ccccc2NC(c2ccc(O)cc2)N1Cc1ccco1 (stereo not given),-1.6%,/,i
O=C(c1sc2ccccc2c1Cl)N(Cc1ccccc1)C1CCS(=O)(=O)C1 (stereo not given),-4.4%,/,i
CC(C)Cc1nnc(NS(=O)(=O)Cc2ccccc2)s1,-5.0%,/,i
O=C(CSc1nnc2scc(-c3ccc(Cl)cc3)n12)NCc1ccco1,0.8%,0.37,i
CC1=C(C(=O)Nc2ccccc2)C(c2ccc3c(c2)OCO3)C2=C(CCCC2=O)N1 (stereo not given),3.3%,0.33,i
O=C(NC1CCCCCC1)c1nc2ncccn2n1,-5.8%,-0.52,i
CCOC(=O)c1ccc(NC(=O)CN2C(=O)CCC2=O)cc1,0.5%,/,i
CCOC(=O)CN(C(=O)CSc1nnc(CNc2ccc(C)cc2C)o1)c1ccccc1,2.4%,-0.32,i
CCN(CC)S(=O)(=O)c1ccc(C(=O)Oc2ccc3c(c2)OCO3)cc1,-3.1%,-0.82,i
Cc1ccc(C)c(N2CCN(S(=O)(=O)c3ccc4c(c3)OCCO4)CC2)c1,-5.0%,0.05,i
CC(C)NC(=O)c1cc(-c2ccco2)on1,-2.4%,-0.67,i
CC(=O)Nc1ccc(-c2nnc(SCC(=O)NCc3ccco3)n2C)cc1,-1.2%,/,i
COC(=O)C(C(=O)Nc1ccccc1C)C1CCCC1 (stereo not given),1.7%,0.37,i
Cn1c(=O)c2c(nc(SCCCC#N)n2Cc2ccccc2F)n(C)c1=O,4.4%,-0.39,i
COC(=O)C(C)C1Sc2ccccc2NC1=O (stereo not given),-5.0%,0.97,i
COc1cc2c(cc1OC)CN(C(=O)Cc1ccc(OC)c(S(=O)(=O)N3CCOCC3)c1)CC2,-0.7%,-0.24,i
COC(=O)c1ccc(NC(=O)c2cnc3scc(C)n3c2=O)cc1,0.0%,-0.28,i
CS(=O)(=O)N(CC(=O)N1CCOCC1)Cc1ccc(Cl)cc1,-2.2%,-0.58,i
COc1ccc2c(C)nc(Nc3nc(C)cc(=O)[nH]3)nc2c1,-7.9%,-0.21,i
CCc1nc(N2CCN(C(=O)c3ccccc3)CC2)c(C#N)c2c1COC(C)(C)C2,-12.9%,-0.96,i
c1ccc2c(c1)Cn1nc(Cc3nc4c(s3)CCCC4)nc1-2,-3.4%,-0.35,i
Brc1ccc2c(c1)c1nc3ccccc3nc1n2CCN1CCOCC1,5.4%,-0.84,i
O=C(CC(c1ccccc1)c1ccccc1)Nc1ccc(Cl)cn1,1.3%,/,i
Cc1ccc(-c2nnn(CC(=O)N(Cc3ccccc3F)C(C(=O)NC3CCCC3)c3ccncc3)n2)o1 (stereo not given),5.0%,/,i
CC(C)OP(=O)(c1ccc(N(C)C)cc1)C(O)c1c(Cl)cccc1Cl (stereo not given),-0.1%,-0.65,i
COc1cccc(C2=CC(c3ccccc3)n3nnnc3N2)c1 (stereo not given),-6.7%,0.5,i
Cc1ccc(NC(=O)NC(=O)CSc2nnnn2C)c(C)c1,1.7%,-1.72,i
O=S(=O)(c1cccs1)n1cnc2ccccc21,-6.8%,-0.56,i
CC(=O)c1c(C)nn(CC(O)Cn2c3c(c4cc(C)ccc42)CCCC3=O)c1C (stereo not given),-3.9%,0.31,i
COc1ccc(C2(O)CCN(C(=O)Cc3cccnc3)CC2)cc1,1.7%,0.61,i

Reprinted from above, five compounds:
SMILES,Hsc70 ATP site,WNV protease inh,MT1-MMP promoter
COc1cccc(C2=CC(c3ccccc3)n3nnnc3N2)c1 (stereo not given),-6.7%,0.5,i
Cc1ccc(NC(=O)NC(=O)CSc2nnnn2C)c(C)c1,1.7%,-1.72,i
O=S(=O)(c1cccs1)n1cnc2ccccc21,-6.8%,-0.56,i
CC(=O)c1c(C)nn(CC(O)Cn2c3c(c4cc(C)ccc42)CCCC3=O)c1C (stereo not given),-3.9%,0.31,i
COc1ccc(C2(O)CCN(C(=O)Cc3cccnc3)CC2)cc1,1.7%,0.61,i

Next part
SMILES,Hsc70 ATP site,WNV protease inh,MT1-MMP promoter
Cc1ccc(OCC(O)CN2CCN(CC(O)COc3ccc(C)cc3)CC2)cc1 (stereo not given),12.1%,1.08,i
Cc1nc(SCC(=O)N2CCCc3ccccc32)c2oc3ccccc3c2n1,-3.7%,0.09,i
COc1ccccc1NC(=O)N1CCN(c2cccc(C(F)(F)F)c2)CC1,2.1%,0.55,i
O=C(CCn1c(=O)[nH]c2ccccc2c1=O)Nc1ccccc1,2.4%,-0.83,i
